Screens as filed in PubChem BioAssay.
GALR2 agonist – GALR2 (human) receptor agonism. O43603. GALR2-expressing cells, agonist activation read-out. activation, %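 (tested at 5 µM)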. 140,000 compounds, 0.48% hits;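 active = above mean plus 3 SD of all compounds, about 5% in these data, not always enough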;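 also: 0% = vehicle buffer wells and 100% = reference agonist at full effect; tested in CHO reporter cells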
Target sequence (O43603 whole entry, looked up): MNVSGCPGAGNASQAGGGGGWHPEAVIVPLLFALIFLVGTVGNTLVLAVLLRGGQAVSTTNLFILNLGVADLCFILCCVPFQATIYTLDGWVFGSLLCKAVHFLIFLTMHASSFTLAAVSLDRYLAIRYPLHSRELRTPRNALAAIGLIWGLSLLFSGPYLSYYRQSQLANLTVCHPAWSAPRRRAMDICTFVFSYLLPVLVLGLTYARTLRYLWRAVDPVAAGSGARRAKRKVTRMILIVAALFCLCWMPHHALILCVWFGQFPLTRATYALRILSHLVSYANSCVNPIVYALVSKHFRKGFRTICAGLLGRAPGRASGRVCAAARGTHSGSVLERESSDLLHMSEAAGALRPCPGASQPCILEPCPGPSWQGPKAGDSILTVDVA
HSV augment – increases HSV replication in cells | HSV replication augmentation in cells, fold increase | maximum fold increase | 220,000 compounds, 0.005% hits | AID 1956;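 active = peak rise of 1.5-fold or more in the series; tested in PC3 cells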;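 also: first round at 10 µM; read as green reporter fluorescence; hits show the peak of a series up to 25 µM; 1 = signal of infected wells without compound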
PKD1 inh – PKD1 (human) kinase inhibition; PKD1 kinase fluorescence polarization assay; inhibition, %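 (about 10 µM by stock and volumes)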; 200,000 compounds, 0.056% hits;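 active = inhibition of 50% or more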;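 also: controls were vehicle for no effect and a reference inhibitor for full effect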
RGS16-Gao – modulates binding between human RGS16 and Galphao. 220,000 compounds, 0.38% hits. bead-based flow cytometry RGS16-Galphao binding, fluorescence; actives lie on both sides. binding response (% of control), % at 10 µM;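 active = below 25% or above 175%, edge rows of some plates excepted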;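 also: Galphao activated by GDP with aluminum fluoride before binding; 100% = wells without compound and 0% = beads without RGS; some results beyond the cut were filed as inactive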
Target sequence (O15492 whole entry, looked up): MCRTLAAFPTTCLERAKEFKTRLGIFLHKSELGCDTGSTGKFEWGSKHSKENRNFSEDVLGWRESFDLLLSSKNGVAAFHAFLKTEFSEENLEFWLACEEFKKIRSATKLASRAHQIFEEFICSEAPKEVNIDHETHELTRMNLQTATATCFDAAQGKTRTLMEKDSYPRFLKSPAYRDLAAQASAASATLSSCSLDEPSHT
Target sequence (P09471 whole entry, looked up): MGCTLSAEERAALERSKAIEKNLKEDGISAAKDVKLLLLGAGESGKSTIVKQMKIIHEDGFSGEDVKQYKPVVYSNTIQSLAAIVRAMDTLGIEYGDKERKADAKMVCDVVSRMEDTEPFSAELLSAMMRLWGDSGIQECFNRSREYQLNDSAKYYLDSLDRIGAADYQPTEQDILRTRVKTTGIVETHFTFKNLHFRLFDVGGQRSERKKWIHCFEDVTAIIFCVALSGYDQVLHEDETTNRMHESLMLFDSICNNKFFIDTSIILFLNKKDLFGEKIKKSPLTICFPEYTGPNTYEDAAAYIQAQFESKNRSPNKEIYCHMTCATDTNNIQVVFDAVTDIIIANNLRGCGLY
Insulin prom inh – TRM-6 insulin promoter activity inhibition; inhibition, % at 2 µM; 130,000 compounds, 0.9% hits; TRM-6 cells (human fetal islet line), insulin promoter-eGFP reporter, imaging; reporter expression induced with tamoxifen;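 active = inhibition above the mean plus 3 SD, with well images judged a real hit on visual review, cut at about 60% in these data, passing the limit was not always enough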
Insulin prom inh cell count – also measured in Insulin prom inh; calls as there; normalized cell count, %; measured here: cell count, toxicity; reference of the scale not given here;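 cells exposed to compound for 48 h; stained nuclei by imaging scaled within each plate; lower means fewer cells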
HSV augment primary fold – also measured in HSV augment; calls as there; fold increase; compound at 10 µM; measured here: primary screen fold increase 10 uM; tested in PC3 cells;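 GFP signal in the first replicate; 1 = infected wells without compound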
* marks the source's active call; other numbers are inactive results; & = joins results of further samples.

For CSc1ncc(Cl)c(C(=O)Nc2nnc(SC/C=C/c3ccccc3)s2)n1 the results were GALR2 agonist -3.9, HSV augment inactive, PKD1 inh -0.6, RGS16-Gao 103.2, Insulin prom inh 21.1, Insulin prom inh cell count 120.1 and HSV augment primary fold 0.93.
`O=C(CC1Sc2ccccc2NC1=O)Nc1cccc(-c2nnc3n2CCCCC3)c1` (stereo not given) gave GALR2 agonist -0.2, HSV augment inactive, PKD1 inh 5.6, RGS16-Gao 104.1&60.5, Insulin prom inh 44.4, Insulin prom inh cell count 30.0 and HSV augment primary fold 1.05.
`CC1(C)CC(O)(CNCc2ccc3c(c2)OCO3)CCO1` (stereo not given) gave GALR2 agonist -2.8, HSV augment inactive, PKD1 inh -12.2, RGS16-Gao 98.4, Insulin prom inh 10.8, Insulin prom inh cell count 68.3 and HSV augment primary fold 0.99.
`O=C(CNS(=O)(=O)c1ccccc1)NCc1ccccn1` gave GALR2 agonist -0.8, HSV augment inactive, PKD1 inh -8.8, RGS16-Gao 106.4, Insulin prom inh 27.8, Insulin prom inh cell count 122.0 and HSV augment primary fold 0.78.
Screening CN(C)c1ncc([N+](=O)[O-])cc1C(F)(F)F returned HSV augment inactive, RGS16-Gao 104.0 and HSV augment primary fold 1.06.
For Cc1ccc(-n2cnc3scc(-c4cccs4)c3c2=O)cc1 the results were GALR2 agonist -1.3, HSV augment inactive, PKD1 inh 3.0, RGS16-Gao 85.4, Insulin prom inh -12.5, Insulin prom inh cell count 194.9 and HSV augment primary fold 0.94.
Screening CCCCN1C(=O)NC2NC(=O)NC21 (stereo not given) returned GALR2 agonist -1.4, HSV augment inactive, PKD1 inh 0.6, RGS16-Gao 105.6, Insulin prom inh 62.5, Insulin prom inh cell count 169.2 and HSV augment primary fold 0.95.
For CNC(=O)/C(C#N)=C/c1c(N2CC(C)OC(C)C2)nc2ccccn2c1=O (stereo not given) the results were GALR2 agonist 3.0, HSV augment inactive, PKD1 inh -4.0, RGS16-Gao 106.6, Insulin prom inh -20.0, Insulin prom inh cell count 99.7 and HSV augment primary fold 1.03.
`CCCCNC(=O)c1c(CSc2ccccc2)noc1C(=O)NCc1ccccc1` gave HSV augment inactive, RGS16-Gao 105.4 and HSV augment primary fold 0.78.
Screening COc1ccccc1NS(=O)(=O)c1cc(NC(=O)c2[nH]c(C)c(C(C)=O)c2C)ccc1N1CCOCC1 returned HSV augment inactive, RGS16-Gao 94.6 and HSV augment primary fold 0.89.
COc1ccc(C(=O)NC(=S)N(C)Cc2ccccc2)cc1Br was read as HSV augment inactive, PKD1 inh -2.1, RGS16-Gao 92.5 and HSV augment primary fold 0.89.
Cc1cccc(C)c1Nc1nnc(SCC(=O)c2ccc3c(c2)NC(=O)CO3)s1 was read as GALR2 agonist -0.5, HSV augment inactive, PKD1 inh 1.3, RGS16-Gao 96.6 and HSV augment primary fold 0.93.
`Cc1ccc(CNC(=O)COc2ccc(S(=O)(=O)NC(C)C)cc2)cc1` gave GALR2 agonist -1.8, HSV augment inactive, PKD1 inh 5.1, RGS16-Gao 99.9, Insulin prom inh -23.1, Insulin prom inh cell count 117.7 and HSV augment primary fold 0.9.
`Cc1ccc(C(=O)Nc2cccnc2)cc1NC(=O)c1ccco1` gave GALR2 agonist -0.4, HSV augment inactive, PKD1 inh -9.8, RGS16-Gao 97.7, Insulin prom inh 10.7, Insulin prom inh cell count 93.7 and HSV augment primary fold 1.1.
CCOC1=NC(C(=O)O)c2ccccc2/C(=C(/C)Cl)N1 (stereo not given) was read as GALR2 agonist 0.1, HSV augment inactive, PKD1 inh -8.2, RGS16-Gao 99.5, Insulin prom inh -38.5, Insulin prom inh cell count 30.1 and HSV augment primary fold 0.95.
Screening C=CCN1C(=O)C2C(C(=O)NC)C3C=CC2(O3)C1C(=O)NCc1ccc(OC)cc1 (stereo not given) returned GALR2 agonist -1.6, HSV augment inactive, PKD1 inh 3.9, RGS16-Gao 129.4, Insulin prom inh 3.2, Insulin prom inh cell count 102.0 and HSV augment primary fold 0.85.
COC(=O)/C(=C\Nc1ccc(Oc2ccc(F)cc2F)nc1)NC(=O)c1ccccc1 was read as HSV augment inactive, RGS16-Gao 102.4 and HSV augment primary fold 0.71.
O=C(CCc1nc2ccccc2c(=O)[nH]1)NCc1cccc(Cl)c1 was read as GALR2 agonist -2.6, HSV augment inactive, PKD1 inh 11.5, RGS16-Gao 101.0, Insulin prom inh -53.1, Insulin prom inh cell count 91.5 and HSV augment primary fold 0.92.
Screening COc1ccc2nc(NC(=O)NC3CCCCC3)sc2c1 returned HSV augment inactive, RGS16-Gao 101.5 and HSV augment primary fold 0.94.
`O=C(/C=C/c1ccc2c(c1)OCO2)N1CCN(c2ccc(Cl)cc2)CC1` gave GALR2 agonist 0.4, HSV augment inactive, PKD1 inh -3.6, RGS16-Gao 39.6, Insulin prom inh 11.4, Insulin prom inh cell count 98.4 and HSV augment primary fold 1.05.
For CS(=O)(=O)c1sc(C(=O)NC(=O)Nc2cccc(C(F)(F)F)c2)c2c1C=CCC2 the results were HSV augment inactive, RGS16-Gao 104.7 and HSV augment primary fold 1.
Screening O=c1c2cnn(-c3ccccc3Cl)c2ncn1Cc1cccnc1 returned GALR2 agonist -1.8, HSV augment inactive, PKD1 inh -21.1, RGS16-Gao 119.2, Insulin prom inh 0.0, Insulin prom inh cell count 103.7 and HSV augment primary fold 0.97.
For O=[N+]([O-])c1ccc(Cl)c(/C=N/n2c(COc3ccccc3)n[nH]c2=S)c1 the results were GALR2 agonist -0.5, HSV augment inactive, PKD1 inh -5.2, RGS16-Gao 101.3, Insulin prom inh -5.6, Insulin prom inh cell count 97.6 and HSV augment primary fold 0.61.
For CC(=O)c1c(C)n(CC(=O)NCc2ccc3c(c2)OCO3)c2ccccc12 the results were GALR2 agonist -2.8, HSV augment inactive, PKD1 inh 6.2, RGS16-Gao 99.7, Insulin prom inh 70.6, Insulin prom inh cell count 61.4 and HSV augment primary fold 0.92.
`Cn1c(SCC(=O)c2ccccc2)nnc1-c1ccc(O)cc1` gave GALR2 agonist -2.7, HSV augment inactive, PKD1 inh -6.0, RGS16-Gao 100.7, Insulin prom inh -16.7, Insulin prom inh cell count 100.2 and HSV augment primary fold 1.03.
Screening O=C(CSc1nc2ccccc2o1)N1CCN(S(=O)(=O)c2ccc3ccccc3c2)CC1 returned GALR2 agonist 0.0, HSV augment inactive, PKD1 inh 9.9, RGS16-Gao 100.4 and HSV augment primary fold 0.84.
Screening Cc1cccc(N(CC(=O)Nc2cccnc2)S(C)(=O)=O)c1 returned HSV augment inactive, RGS16-Gao 100.1 and HSV augment primary fold 0.96.
`CC(C)Cn1c(N)c(C(=O)COC(=O)c2ccc3c(c2)OCCO3)c(=O)n(C)c1=O` gave GALR2 agonist 0.3, HSV augment inactive, PKD1 inh -4.6, RGS16-Gao 99.5, Insulin prom inh 15.8, Insulin prom inh cell count 212.5 and HSV augment primary fold 1.02.
Screening COc1cccc(-c2cc(C(F)(F)F)nc(N3CCCCC3)n2)c1 returned GALR2 agonist -2.1, HSV augment inactive, PKD1 inh 7.2, RGS16-Gao 103.0 and HSV augment primary fold 0.83.
COc1ccc(C(F)(F)F)cc1N/C=C/c1nnnn1-c1ccc(C)cc1 was read as HSV augment inactive, RGS16-Gao 103.3 and HSV augment primary fold 1.01.
Cc1ccc(NC(=O)CN2c3cccc4cccc(c34)S2(=O)=O)cc1S(=O)(=O)N1CCOCC1 was read as GALR2 agonist 0.5, HSV augment inactive, PKD1 inh -8.7, RGS16-Gao 103.3, Insulin prom inh 9.4, Insulin prom inh cell count 92.3 and HSV augment primary fold 0.84.
`CCOC(=O)/C=C(\C)Nc1cc(C)nn1-c1ccccc1` gave GALR2 agonist 0.2, HSV augment inactive, PKD1 inh -1.4, RGS16-Gao -13.4, Insulin prom inh 8.8, Insulin prom inh cell count 93.0 and HSV augment primary fold 1.09.
Screening Cn1c(Cc2cccc3ccccc23)nnc1SCC(=O)N1CCN(c2cccc(Cl)c2)CC1 returned GALR2 agonist 0.6, HSV augment inactive, PKD1 inh 1.3, RGS16-Gao 98.5, Insulin prom inh 10.3, Insulin prom inh cell count 81.4 and HSV augment primary fold 0.947.
C/C(=N\Nc1c([N+](=O)[O-])c(C)nn1C)c1ccc(F)cc1F was read as HSV augment inactive, PKD1 inh 6.6, RGS16-Gao 94.3 and HSV augment primary fold 1.07.
On1nnc2c3ccccc3c3ccccc3c21 was read as HSV augment inactive, PKD1 inh -8.0, RGS16-Gao 107.6 and HSV augment primary fold 1.04.
For COc1ccc(Cl)cc1NC(=S)NCc1cccnc1 the results were HSV augment inactive, PKD1 inh 1.4, RGS16-Gao 99.1 and HSV augment primary fold 0.94.
`CCOC(=O)N1CCN(C(=O)c2cc(-c3ccc(OCC)cc3)nc3ccccc23)CC1` gave GALR2 agonist -2.5, HSV augment inactive, PKD1 inh -16.7, RGS16-Gao 99.8, Insulin prom inh -328.6, Insulin prom inh cell count 13.6 and HSV augment primary fold 0.71.
Screening Cc1cc(C=C2C(=O)c3ccccc3C2=O)c(C)n1-c1ccccc1 returned GALR2 agonist -2.9, HSV augment inactive, PKD1 inh 11.7, RGS16-Gao 92.5 and HSV augment primary fold 0.98.
Screening COCCNC(=O)c1cc(-c2cccs2)on1 returned GALR2 agonist -1.8, HSV augment inactive, PKD1 inh -7.3, RGS16-Gao 97.4 and HSV augment primary fold 0.92.
Screening Cc1ccc(C)c(OCC(O)CN2CCCCC2C)c1 (stereo not given) returned GALR2 agonist 0.6, HSV augment inactive, PKD1 inh -3.2, RGS16-Gao 98.3 and HSV augment primary fold 0.83.
O=C(N/N=C/c1c(O)n(Cc2ccco2)c(=O)[nH]c1=O)c1ccccc1 was read as HSV augment inactive, RGS16-Gao 101.9 and HSV augment primary fold 1.11.
`CNC(=O)CC(=O)Nc1ccccc1C(=O)O` gave GALR2 agonist -3.1, HSV augment inactive, PKD1 inh -14.4, RGS16-Gao 104.1, Insulin prom inh 48.8, Insulin prom inh cell count 117.2 and HSV augment primary fold 0.98.
For Cc1ccc(S(=O)(=O)c2cc3c(=O)n4ccccc4nc3n(Cc3ccco3)c2=N)cc1 the results were GALR2 agonist 2.2, PKD1 inh -9.2, RGS16-Gao 92.5, Insulin prom inh 25.0 and Insulin prom inh cell count 142.9.
For Cc1ccc2nc(N(CCCN(C)C)C(=O)c3ccc(S(=O)(=O)N(C)C)cc3)sc2c1 the results were GALR2 agonist -1.6, HSV augment inactive, PKD1 inh -6.3, RGS16-Gao 99.2, Insulin prom inh 50.0, Insulin prom inh cell count 133.5 and HSV augment primary fold 0.87.
CSc1ccc(CNC(=O)c2c(C)noc2C)s1 was read as HSV augment inactive, RGS16-Gao 96.2 and HSV augment primary fold 0.91.

Continued; the last four above are carried over.
`CNC(=O)CC(=O)Nc1ccccc1C(=O)O` gave GALR2 agonist -3.1, HSV augment inactive, PKD1 inh -14.4, RGS16-Gao 104.1, Insulin prom inh 48.8, Insulin prom inh cell count 117.2 and HSV augment primary fold 0.98.
For Cc1ccc(S(=O)(=O)c2cc3c(=O)n4ccccc4nc3n(Cc3ccco3)c2=N)cc1 the results were GALR2 agonist 2.2, PKD1 inh -9.2, RGS16-Gao 92.5, Insulin prom inh 25.0 and Insulin prom inh cell count 142.9.
For Cc1ccc2nc(N(CCCN(C)C)C(=O)c3ccc(S(=O)(=O)N(C)C)cc3)sc2c1 the results were GALR2 agonist -1.6, HSV augment inactive, PKD1 inh -6.3, RGS16-Gao 99.2, Insulin prom inh 50.0, Insulin prom inh cell count 133.5 and HSV augment primary fold 0.87.
CSc1ccc(CNC(=O)c2c(C)noc2C)s1 was read as HSV augment inactive, RGS16-Gao 96.2 and HSV augment primary fold 0.91.
Screening CCCCN(C)c1ccc([N+](=O)[O-])cc1 returned GALR2 agonist -0.7, HSV augment inactive, PKD1 inh -1.5, RGS16-Gao 98.9, Insulin prom inh 9.4, Insulin prom inh cell count 67.8 and HSV augment primary fold 1.02.
Screening Cc1ccc(N2C(=O)C3CC(c4ccccc4)=C4C5C=CC(C6C(=O)N(c7ccc(C)cc7)C(=O)C56)C4C3C2=O)cc1 (stereo not given) returned GALR2 agonist -0.4, HSV augment inactive, PKD1 inh -5.2, RGS16-Gao 109.9, Insulin prom inh -47.4, Insulin prom inh cell count 48.1 and HSV augment primary fold 0.83.
Cc1cc(C)c[n+](C(C)C(=O)c2ccc(-c3ccccc3)cc2)c1 (stereo not given) was read as GALR2 agonist -0.7, HSV augment inactive, PKD1 inh -1.3, RGS16-Gao 103.2, Insulin prom inh 26.7, Insulin prom inh cell count 110.5 and HSV augment primary fold 0.8.
`CCCOc1ccc(C(CC(=O)O)NC(=O)c2ccc3c(c2)OCO3)cc1` (stereo not given) gave GALR2 agonist -2.3, HSV augment inactive, PKD1 inh -0.4, RGS16-Gao 103.4, Insulin prom inh -7.1, Insulin prom inh cell count 112.3 and HSV augment primary fold 1.03.
